GIV-Gai inh: blocks GIV peptide binding to rat Galpha-i3. P08753. Galpha-i3/FITC-GIV peptide fluorescence polarization, 90 min; hits give low values; scaled: aluminum fluoride 0%, vehicle 100%. percent of control (FP), % (test concentration not listed). actives 0.42% (n = 210,000). AID 1224905;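 active = replicate mean at 85% of control or lower, very high polarization wells dropped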;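 note: wells of about 15 µL received 100 nL stock; the first replicate is given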
Target sequence (P08753 whole entry, looked up): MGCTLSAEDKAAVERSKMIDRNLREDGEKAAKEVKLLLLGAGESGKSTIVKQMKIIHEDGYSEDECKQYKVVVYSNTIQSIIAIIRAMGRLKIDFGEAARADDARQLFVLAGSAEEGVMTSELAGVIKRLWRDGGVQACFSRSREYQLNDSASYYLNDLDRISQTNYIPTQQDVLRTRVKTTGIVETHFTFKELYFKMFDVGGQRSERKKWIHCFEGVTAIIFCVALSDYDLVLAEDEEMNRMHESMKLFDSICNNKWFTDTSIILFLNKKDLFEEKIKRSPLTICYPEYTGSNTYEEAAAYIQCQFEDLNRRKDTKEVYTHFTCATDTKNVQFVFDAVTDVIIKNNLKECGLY
Sa growth inh: blocks Staphylococcus aureus growth. S. aureus RN4220 growth, OD600, 20 h, 42 °C; hits give low values. relative growth, % (no concentration beside the values). actives 0.53% (n = 170,000);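 active = growth at 42 °C up to 50% and 20 or more points under that at 30 °C, or under 10% at both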;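 note: 300 nL library stock went into each well; scaled to the means of positive and negative controls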
HCMV NEC inh: disrupts HCMV UL50-UL53 complex binding. HTRF UL50-UL53 interaction, normalized percent inhibition. inhibition, % (no concentration beside the values). actives 0.15% (n = 190,000);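 active = both replicates at 50% or more, plus weaker picks with an unusually low signal ratio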;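 note: stock transfer was 100 nL into about 20 µL; 0% = negative control wells and 100% = wells with untagged competitor protein; inactives centre near -12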
Sa growth inh second temp: further read-out of Sa growth inh, marked with its call; relative growth, %; measured here: growth at 30 °C;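 optical density after 20 h as mean of two plates; 100% = untreated growth and lower means inhibition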
Active calls of the source: *; x = no result given; & = joins results of further samples.

SMILES	GIV-Gai inh	Sa growth inh	Sa growth inh second temp	HCMV NEC inh
CC(=O)c1cccc(NC(=O)c2c(-c3ccccc3)c(-c3ccccc3)nn(C)c2=O)c1	99.3	96.2	79.0	-21.4
CC1CC(C)CN(C(=O)CSc2nc3c(c(=O)[nH]2)CCC3)C1 (stereo not given)	109.2	74.7	80.5	-5.1
Cn1nc(C(=O)NC(c2ccccc2)c2ccccc2)ccc1=O	x	122.7	100.8	-0.6
CCCNS(=O)(=O)c1ccc2c(c1)n(C)c(=O)c(=O)n2C	101.3	100.6	88.0	x
Cc1ccc(C)c(NC(=S)NC2CC3CCC(C2)N3Cc2ccco2)c1 (stereo not given)	100.6	115.0	83.2	-16.4
CCCc1[nH]nc2c1C(c1cc(OC)c(OC(C)=O)c(OC)c1)C(C#N)=C(N)O2 (stereo not given)	x	109.6	85.0	-4.4
CC(C)c1cc(C(=O)Nc2cccc(Br)c2)nn1C1CCS(=O)(=O)C1 (stereo not given)	103.2	x	x	1.1
O=S(=O)(Nc1ccc(F)cc1)c1cccc2cccnc12	99.3	107.1	86.5	-17.1
Cc1ccc(CNC(=O)CCS(=O)(=O)c2cc3c(cc2C)NC(=O)CO3)cc1	104.1&105.2	104.2	96.6	-17.9
CSc1nc2sc3c(c2c(=O)n1Cc1ccccc1)CCC(C(C)(C)C)C3 (stereo not given)	114.8	100.8	103.2	-2.9
COc1ccc(OC)c(CNC(=O)c2nn(-c3ccc(OC)c(Cl)c3)c(=O)c3c2c2ccccc2n3C)c1	102.9	99.3	102.0	8.5
Cc1nn(-c2cccc(C(F)(F)F)c2)c2sc(C(=O)O)cc12	x	96.0	88.1	-17.6
COc1ccc(CN2C(=O)c3cccnc3C2=O)cc1S(=O)(=O)N1CCCCC1	100.8	92.6	104.6	6.0
O=C(CSc1nc2ccc(NC(=O)c3ccccc3C(=O)N3CCCC3)cc2s1)NC1CC1	107.1	x	x	-17.8
Cc1sc2cc(-[n+]3ccc(O)cc3)ccc2[n+]1-c1ccccc1	x	92.2	69.3	-1.8
O=c1oc(-c2ccc(F)cc2)nc2scc(-c3ccc(Br)cc3)c12	100.7	x	x	-5.4
Cc1nc(NCC(C)c2ccccc2)c2onc(-c3ccc(Cl)cc3)c2n1 (stereo not given)	93.2	x	x	-17.9
CCCC(=O)N(Cc1nc2nc(C)cc(=O)n2[nH]1)c1ccc(OCC)cc1	106.3	x	x	-10.9
CCc1c(CN2CCN(Cc3ccccc3)CC2)csc1C	107.2	76.6	85.0	-22.4
O=C(Nc1ccc(F)cc1F)C(Cc1ccccc1)NS(=O)(=O)c1cccc2cccnc12 (stereo not given)	106.0	107.5	90.7	-1.8
COc1ccc(C(=O)Nc2ccc3c(c2)C(=O)N(C)C2=NCCN23)cc1OC	97.8	x	x	-39.5
Cn1c(=O)c2c(nc(SCC(=O)Nc3ccccc3F)n2Cc2ccccc2)n(C)c1=O	102.9	104.1	86.4	x
COc1cc2c(cc1OC)C(C)N(c1ncnc3onc(C)c13)CC2 (stereo not given)	94.5	104.9	78.9	-13.1
O=C(CSc1nnc(-c2ccccc2F)o1)Nc1ccccc1Cl	100.3	91.4	84.0	8.7
CCOc1ccccc1C1C2=C(CC(C)(C)CC2=O)Nc2ccccc2N1C(=O)c1ccccc1 (stereo not given)	101.0&98.0	x	x	-9.7&-2.8

Full records as entered above. Order of values: GIV-Gai inh | Sa growth inh | Sa growth inh second temp | HCMV NEC inh
CC(=O)c1cccc(NC(=O)c2c(-c3ccccc3)c(-c3ccccc3)nn(C)c2=O)c1 in the list: 99.3 | 96.2 | 79.0 | -21.4
O=C(CSc1nc2ccc(NC(=O)c3ccccc3C(=O)N3CCCC3)cc2s1)NC1CC1 in the list: 107.1 | x | x | -17.8
CCOc1ccccc1C1C2=C(CC(C)(C)CC2=O)Nc2ccccc2N1C(=O)c1ccccc1 (stereo not given) in the list: 101.0&98.0 | x | x | -9.7&-2.8

Following part.
SMILES	GIV-Gai inh	Sa growth inh	Sa growth inh second temp	HCMV NEC inh
Cc1cc(NS(=O)(=O)c2cc(-c3ccc(=O)n(-c4c(C)noc4C)n3)ccc2C)no1	106.7	x	x	-36.7
O=C(NCCCN1CCCC1=O)Nc1cccc(C(F)(F)F)c1	x	60.0	76.2	-11.6
CN1CCN(C(=O)Cn2c(-c3cccs3)cc3cc(Cl)ccc32)CC1	113.3	90.2	87.6	x
Cn1ccc(C(=O)N2CCCC2c2ccccc2F)n1 (stereo not given)	104.8	x	x	-26.6
N#Cc1ccc(C23CC4CC(CC(C4)C2)C3)nc1SCCN1CCCCC1	100.3	91.8	79.9	x
Cc1cc(N2CCOCC2)n2nc(C(F)(F)F)c(-c3ccc(Cl)cc3)c2n1	87.8	x	x	1.6
Cc1ccc2oc3c(c(=O)c2c1)C(c1cccs1)N(CCN(C)C)C3=O (stereo not given)	106.3	81.3	79.8	-102.3
O=C(COc1ccc(C2Nc3ccccc3S(=O)(=O)N2Cc2ccccc2)cc1)NCc1ccccc1 (stereo not given)	97.2	x	x	-8.5
CCC(=O)N1CCCc2cc(S(=O)(=O)N3CCC(C(=O)NCc4ccc(F)cc4)CC3)ccc21	104.6	108.9	92.0	x
Cc1nnc(SCC(=O)NCC(F)(F)F)n1N	x	93.9	94.9	-3.5
COc1cc(C2C3=C(CC(C)(C)CC3=O)Nc3ccccc3N2C(=O)c2ccccc2)cc(OC)c1OC (stereo not given)	104.7	x	x	-6.9
CCOc1ccc(NC(=O)CC2C(=O)NCCN2C(=O)Nc2ccccc2)cc1 (stereo not given)	110.4	94.9	104.7	18.3
CN(C)c1ccc(/C=C/c2noc(-c3ccccc3O)n2)cc1	112.0	109.2	99.4	-4.5
CCOC(=O)/C(=N\O)C1=NC(C)(C)Cc2ccccc21	98.0	109.6	124.0	-8.0
O=C(O)c1cc(-c2cccs2)nc2ccc(Br)cc12	x	124.2	62.0	-48.1
Cc1c(C#N)c(-n2cccc2)n(CC2CC2)c1C	104.0	76.8	51.9	3.9
COC(=O)c1c(C)oc2ccc(O)c(CN3CCCCC3)c12	99.4&105.3	95.4	81.9	-9.6&-25.7
CCCCNC(=O)CN1CCN(c2ccc(C(=O)O)cc2NC(=O)c2ccccc2Cl)CC1	94.4	x	x	-6.5
COc1ccc(-c2noc(CN(C(C)C)S(=O)(=O)c3ccc(Br)cc3)n2)cc1	97.2	112.5	93.3	-7.8
COCCCNC(=O)c1c(C)nn(-c2ccc(F)cc2)c1-n1cccc1	106.3	96.3	89.0	x
CC(=O)N1CCN(S(=O)(=O)c2cccc(C(=O)OCC(=O)c3cc(C)n(-c4ccc5c(c4)OCO5)c3C)c2)CC1	x	89.2	85.6	-11.7
N#Cc1ccc(OCC(=O)Nc2ccc(-c3nnc4n3CCCCC4)cc2)cc1	x	97.2	96.4	-2.5
CCC1(c2ccccc2)NC(=S)N(C)N1 (stereo not given)	110.9	99.4	78.9	24.4
CCC(C)Nc1ncnc2cc(OC)c(OC)cc12 (stereo not given)	105.4	106.9	100.3	23.9
Cc1oc(-c2ccc(OC(C)C)cc2)nc1CSc1nc2c(c(=O)[nH]1)CCCC2	103.1	x	x	-32.7

A draw from above in order of molar mass, largest number first.
SMILES	GIV-Gai inh	Sa growth inh	Sa growth inh second temp	HCMV NEC inh
O=C(COc1ccc(C2Nc3ccccc3S(=O)(=O)N2Cc2ccccc2)cc1)NCc1ccccc1 (stereo not given)	97.2	x	x	-8.5
CCCCNC(=O)CN1CCN(c2ccc(C(=O)O)cc2NC(=O)c2ccccc2Cl)CC1	94.4	x	x	-6.5
COC(=O)c1c(C)oc2ccc(O)c(CN3CCCCC3)c12	99.4&105.3	95.4	81.9	-9.6&-25.7

The listing picks up with the two entries that preceded the break.
SMILES	GIV-Gai inh	Sa growth inh	Sa growth inh second temp	HCMV NEC inh
CCC(C)Nc1ncnc2cc(OC)c(OC)cc12 (stereo not given)	105.4	106.9	100.3	23.9
Cc1oc(-c2ccc(OC(C)C)cc2)nc1CSc1nc2c(c(=O)[nH]1)CCCC2	103.1	x	x	-32.7
CCOC(=O)N1CCN(C(=O)c2cc(-c3ccc(F)cc3)[nH]c2C)CC1	99.7	100.2	74.7	2.5
CCSc1nnc2c(n1)OC(c1cc(OC)c(OC)c(OC)c1)Nc1ccccc1-2 (stereo not given)	108.0	94.2	85.8	-23.2
NS(=O)(=O)c1cc(C(=O)OCC(=O)N2CCCC2=O)ccc1Cl	x	89.2	80.2	-37.2
CCOC(=O)c1c(S(=O)(=O)NCC(=O)NCc2ccccc2)c(C)n(C)c1C	98.9	80.3	89.7	x
O=C(NCc1noc2ccccc12)Nc1ccc(F)c(Cl)c1	105.7	x	x	-7.5
O=C(NC1CCCC1)c1cc2c(Cl)nc3ccccc3c2s1	103.7	111.2	92.4	x
CCOC(=O)c1cn[nH]c1S(=O)(=O)N1CCC(C(N)=O)CC1	101.0	x	x	-0.4
CCCCNC(=O)C1CCC(Cn2c(=O)c3sccc3n(CC(=O)N3CCCC3)c2=O)CC1 (stereo not given)	107.2	105.5	102.2	x
COc1ccc(-c2nnc(SCC(=O)Oc3c(C)cccc3C)o2)cc1OC	104.4	90.6	86.2	8.4
O=c1oc2ccc(Cl)cc2nc1/C=C(\O)c1ccco1	2.2*	99.6	88.0	-7.2
CCCCN(CC)c1ncc(C(=O)O)cc1NS(=O)(=O)c1cc(C)c(C)cc1C	101.3	x	x	-15.2
O=C(COC(=O)CSc1ccc2ccccc2c1)NC1CCCC1	x	128.4	83.6	-34.5
CCCOc1cccc(C2c3c(oc4ccc(F)cc4c3=O)C(=O)N2Cc2ccc3c(c2)OCO3)c1 (stereo not given)	97.4	94.1	88.2	-4.5
CCOc1ccc(C(=O)c2cn(Cc3ccc(F)cc3)c3ccc(F)cc3c2=O)cc1	102.8	74.5	82.2	-16.7
Cc1n[nH]c(C)c1S(=O)(=O)N1CCC(C(=O)N(C)Cc2cccc(Cl)c2Cl)CC1	x	105.0	89.3	-10.9
O=C(NC(=O)c1csc(-c2ccc(C(F)(F)F)cc2Cl)n1)Nc1ccc(F)cc1	99.4	87.8	93.6	-46.8
Cc1nc2ccc(S(=O)(=O)NC(CC(C)C)C(=O)N3CC=C(c4ccccc4)CC3)cc2s1 (stereo not given)	99.4	x	x	-19.4
Cc1cc(C)nc(N2CC(=O)N(CCOc3ccc(Br)cc3)C2=O)n1	96.5	83.4	67.1	x
CCCCNc1nc(Oc2ccc(OCCC)nn2)nc(N(C)C)n1	98.9	100.2	87.4	-36.1
Cc1ccsc1C(=O)OCC(=O)c1cc2ccccc2o1	x	83.8	81.5	-30.3
Cc1noc(/C=C/N2CCOCC2)c1S(=O)(=O)N1CCN(c2ccc(F)cc2)CC1	106.9	91.4	93.1	x
Cn1c2cn(-c3ccc(F)cc3)c(-c3ccccc3)c2c(=O)n1-c1ccccc1	103.2	x	x	23.8
CCOC(=O)N1CCN(C(=O)CN(C)S(=O)(=O)c2ccc3c(c2)c(=O)n(C)c(=O)n3C)CC1	96.0	98.8	90.8	x
Cc1cccc(N(C)S(=O)(=O)c2nnc(NC(=O)C(C)Oc3ccccc3)s2)c1 (stereo not given)	102.9	88.3	55.4	-18.0
COC(=O)c1ccn(-c2nc(-c3cccs3)cc(C(F)(F)F)n2)n1	99.9	96.0	80.8	-17.5

Looked up above:
Cc1ccsc1C(=O)OCC(=O)c1cc2ccccc2o1 – HCMV NEC inh = -30.3
O=C(NC1CCCC1)c1cc2c(Cl)nc3ccccc3c2s1 – Sa growth inh second temp = 92.4
O=C(NCc1noc2ccccc12)Nc1ccc(F)c(Cl)c1 – GIV-Gai inh = 105.7

(continued)
SMILES	GIV-Gai inh	Sa growth inh	Sa growth inh second temp	HCMV NEC inh
O=c1[nH]cnc2cccc(F)c12	107.5	97.9	91.1	-36.3
Cc1ccc2c(=O)cc(-c3ccc(F)cc3)oc2c1	103.4	87.7	68.1	x
C=CCC(C#Cc1ccccc1)N(C)C (stereo not given)	105.1	87.0	88.7	-23.9
Cc1ccc(S(=O)(=O)N(C)c2ccc(OCC(=O)Nc3ccc(N4CCN(C)CC4)cc3C)cc2)cc1	x	88.0	101.1	0.3
COc1ccc(CC(=O)N2CCC3(CC2)N=C(c2ccc(C)cc2)C(=O)N3)cc1OC	101.5	99.1	92.0	-1.0
C=CCNC(=O)Cn1nc(N2CCN(c3ccccc3OC)CC2)ccc1=O	105.8	x	x	-37.4
Cc1nc(C)c(CCNC(=O)c2cccs2)s1	110.6	108.5	86.2	-26.1
CCc1ccccc1NS(=O)(=O)c1ccc2c(c1)CCN2C(=O)C1CC1	105.0	103.5	91.9	-18.6
CP1(=O)COc2ccccc2OC1	x	113.2	92.6	7.5

Screens as filed in PubChem BioAssay.
